# Hsc70 = Hsc70 inhibitors, probe displacement, primary screen, biochemical, fluorescence polarization (AID 568) | Heat shock cognate 71 kDa protein (Homo sapiens) | Hsc70 fluorescence polarization, probe displacement; higher % means a stronger effect; strong numbers were not always called active | one-dose displacement, % at 20 µM; IC50 in µM for titrated hits | 83,000 tested, under 10 active;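 active = displacement above 50% without optical interference and an IC50 on retest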;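 also: ATPase domain with a fluorescein-tagged ATP probe; 0% = vehicle and 100% = excess ADP; read after one hour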
# MT1-MMP reporter = inhibitors of MT1-MMP promoter transcription, cell-based, luciferase reporter, luminescence (AID 618) | 87,000 compounds, 0.62% hits | calls from a first round at 10 µM; hits with a dose series show EC50 in µM | MT1-MMP promoter luciferase reporter cells, luminescence;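 active = over half of the reporter light lost at 10 µM or EC50 under 50 µM; inactive = the rest and hits that failed the dose series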;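 also: actives suppress MT1-MMP promoter-driven transcription so potencies describe inhibitors; HT1080 fibrosarcoma cells; overnight exposure; toxic or luciferase-blocking compounds were not removed from the actives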
# WNV NS2B-NS3 inh = inhibitors of WNV NS2B-NS3 protease, primary screen, biochemical, fluorogenic substrate. fluorogenic substrate Ex360/Em465; stronger effect = lower value. z-score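 (tested at a level between 10 and 100 µM)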. 65,000 compounds, 0.18% hits;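 active = z-score at -3 or under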;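 also: score is relative to mean and spread of the compound wells of a plate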
# Target sequence (P06935 1371-1501 limits assumed): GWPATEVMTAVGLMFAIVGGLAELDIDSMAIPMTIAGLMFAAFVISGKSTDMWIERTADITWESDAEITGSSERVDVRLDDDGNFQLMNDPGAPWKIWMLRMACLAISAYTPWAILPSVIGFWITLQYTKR
# Target sequence (P06935 1502-1679 limits assumed): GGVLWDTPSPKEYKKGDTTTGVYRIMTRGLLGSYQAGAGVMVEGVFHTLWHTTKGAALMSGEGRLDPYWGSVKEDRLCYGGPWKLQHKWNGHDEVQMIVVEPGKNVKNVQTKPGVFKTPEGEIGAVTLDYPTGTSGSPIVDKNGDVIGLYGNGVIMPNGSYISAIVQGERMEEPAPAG
# * marks the source's active call; other numbers are inactive results; i = inactive; / = no result given; + = active, no number.
structure,Hsc70,MT1-MMP reporter,WNV NS2B-NS3 inh
O=c1cc(Cn2ccnc2)c2cc3c(cc2o1)CCC3,-3.0%,i,-0.46
CCOC(=O)C(NC(C)=O)(Nc1ccc(S(=O)(=O)Nc2ccncn2)cc1)C(F)(F)F (stereo unspecified),-5.6%,i,/
CN(C)C(=O)COC(=O)/C=C/c1ccccc1[N+](=O)[O-],0.5%,i,/
Cc1cc(C(=O)NCc2cccnc2)no1,-10.7%,i,-0.63
CCN(CC)CCOc1nc(C)nc2c1oc1ccccc12,-2.2%,i,0.32
COc1cccc(-n2c(SC)nnc2-c2cnccn2)c1,4.1%,i,-0.58
O=c1c(-c2ccc3c(c2)OCCO3)c(C(F)(F)F)oc2cc(O)cc(O)c12,-3.9%,i,-1.52
O=C(CSc1nnc2scc(-c3ccccc3)n12)N1CCN(Cc2ccccc2)CC1,-6.8%,i,-0.8
Cc1cc(N2CCCC2=O)cc(C)c1S(=O)(=O)NCCOc1ccc(C(C)(C)C)cc1,-4.5%,i,/
Cc1ccccc1NC(=O)c1c(F)c(F)c(F)c(F)c1F,-7.3%,i,0.46
COc1ccc(-n2c(=O)c3ccccc3n(CC(=O)NC3CCCC3)c2=O)cc1,-0.4%,i,1.4
COc1ccc(N=NC2=C(O)CC(C)(C)CC2=O)c(OC)c1,-45.1%,i,/
CCCCn1c(NC(=O)c2ccccc2)c(C#N)c2nc3ccccc3nc21,-35.1%,i,0.43
OC(COc1ccc2ccccc2c1Cl)CN1CCOCC1 (stereo unspecified),-5.3%,i,0.54
C=CCn1c(CCNC(=O)c2cccs2)nnc1SCC(=O)c1ccc(Cl)cc1,2.2%,i,/

# 3 structures already listed, sorted by molar mass, ascending.
structure,Hsc70,MT1-MMP reporter,WNV NS2B-NS3 inh
O=c1cc(Cn2ccnc2)c2cc3c(cc2o1)CCC3,-3.0%,i,-0.46
Cc1ccccc1NC(=O)c1c(F)c(F)c(F)c(F)c1F,-7.3%,i,0.46
OC(COc1ccc2ccccc2c1Cl)CN1CCOCC1 (stereo unspecified),-5.3%,i,0.54

# Further structures follow.
structure,Hsc70,MT1-MMP reporter,WNV NS2B-NS3 inh
CCC(C)n1nccc1NC(=O)C(C)OC(=O)c1cc2ccccc2[nH]1 (stereo unspecified),2.4%,i,-0.21
CCCCC(=O)NC1(C(F)(F)F)C(=O)Nc2c1c(=O)[nH]c(=O)n2Cc1ccco1 (stereo unspecified),0.5%,i,-0.04
O=C(C1CCC(C(=O)N2CCc3ccccc32)CC1)N1CCc2ccccc21 (stereo unspecified),2.3%,i,-0.55
CN(CC(N)=O)S(=O)(=O)c1ccc(F)cc1,-2.2%,i,/
O=C(Nc1ccc(S(=O)(=O)N2CCc3ccccc3C2)cc1)C1CCCO1 (stereo unspecified),3.4%,i,-0.8
Cc1ccc(-n2c(Cc3cccs3)nnc2SCC(=O)OC(C)C)cc1,-1.1%,i,-0.91
CCOC(=O)N1CCC2(CC1)C(C#N)=C(N)OC1=C2C(=O)CC(C)C1 (stereo unspecified),4.1%,i,/
CCOC(=O)N1CCC(N2C(=O)c3ccc(C(=O)NC4CCCCCC4)cc3C2=O)CC1,3.3%,i,-0.25
CC(C)(C)N(Cc1ccccc1)C(=O)CSc1nnc(CNc2ccc(F)cc2)o1,-1.3%,i,-0.43
COC(=O)c1sc(NC(=O)Cc2cccs2)nc1C,-12.0%,i,-0.57
O=S(=O)(Nc1cccnc1)c1ccc(C2CCCCC2)cc1,-12.0%,i,-0.03
Cc1occc1C(=O)Nc1c(F)cc(F)cc1Br,1.0%,i,-0.09
CCOC(=O)c1ccc(CNC(=O)C2CCCCC2C(=O)OCC(F)(F)F)o1 (stereo unspecified),-8.0%,i,-0.15
COc1cccc(NC(=S)/C(=C(\[O-])c2ccc(C)c([N+](=O)[O-])c2)[n+]2ccccc2)c1,2.6%,i,/
O=c1c2ccccc2n2cnnc2n1-c1ccccc1,-2.9%,i,-1.94
COC(=O)c1sc(NC(=O)c2ccco2)nc1C,2.8%,i,-0.97
O=C(CSc1oc(-c2ccc(F)cc2)nc1S(=O)(=O)c1ccccc1)NCC1CCCO1 (stereo unspecified),-1.8%,i,/
CNC(=O)CN1C(=O)c2ccccc2S1(=O)=O,3.3%,i,0.76
COc1cc(C(=O)Nc2ccc(S(=O)(=O)NC(C)C)cc2)cc(OC)c1OC,-6.6%,i,/
O=C(Nc1nc(-c2cccnc2)cs1)c1ccc(S(=O)(=O)N2CCOCC2)cc1,0.6%,i,-1.22
CCc1nc(C)cc(N)c1OCc1ccccc1,-7.9%,i,-0.52
COC(=O)c1cc2sccc2n1Cc1nc(-c2ccc(OC)cc2)oc1C,-0.1%,i,-1.7
Fc1ccc2c(c1)[C@H]1OCC[C@H]1[C@@H](c1ccco1)N2,-4.7%,i,0.19
Cc1ccc(S(=O)(=O)N2CCN(c3nc(C)c4c(c3C#N)CC(C)(C)OC4)CC2)cc1,1.2%,i,0.1
COc1ccc(-c2cc(=O)[nH]c(=O)[nH]2)cc1,-1.1%,i,0.52
COc1ccc(C2c3c(oc4ccccc4c3=O)C(=O)N2c2ccccn2)cc1 (stereo unspecified),4.0%,i,-0.47
CCCC(=O)Nc1cccc(Oc2nc(C)cc(C)c2C#N)c1,4.6%,i,/
CC(C)n1nnnc1SCC(=O)NCCc1ccccc1,-5.9%,i,/
CCN(C1CCCCC1)S(=O)(=O)c1ccc(S(=O)(=O)NCCc2ccncc2)cc1,-3.6%,i,1.22
COc1ccc([C@@H]2Sc3cc(OC)ccc3N(CCN(C(C)C)C(C)C)C(=O)[C@H]2OC(C)=O)cc1,-1.6%,i,/

# An excerpt of these results, with two lines to a compound.
# Under each structure – Hsc70	MT1-MMP reporter	WNV NS2B-NS3 inh
COc1cc(C(=O)Nc2ccc(S(=O)(=O)NC(C)C)cc2)cc(OC)c1OC
 : -6.6%	i	/
CCN(C1CCCCC1)S(=O)(=O)c1ccc(S(=O)(=O)NCCc2ccncc2)cc1
 : -3.6%	i	1.22

# (further entries)
structure,Hsc70,MT1-MMP reporter,WNV NS2B-NS3 inh
Cc1ccc(NC(=O)C2CCN(C(=O)NC3CCCCC3)CC2)cc1Cl,1.9%,i,-0.95
CCN(CC)c1cccc(OCC(=O)N(C)CCC#N)c1,-31.6%,i,-1.18
O=C(Nc1ccc(F)cc1F)NC1CC(=O)N(Cc2ccccc2)C1 (stereo unspecified),-4.0%,i,0.49
CCOC(=O)N1CCC(NC(=O)CSCc2nc(-c3ccc(OC)c(OC)c3)oc2C)CC1,2.6%,i,0.11
O=C(c1ccc(NC2=NC3CS(=O)(=O)CC3S2)cc1)N1CCN(C(=O)c2ccco2)CC1 (stereo unspecified),7.4%,i,0.37
Cn1cc(CN2CCc3ccccc3C2)c2ccccc21,3.6%,i,-0.46
OC(COc1ccccc1)CN1CCOCC1 (stereo unspecified),-0.8%,i,/
CC1(C(=O)NC2CCCC2)CCC(=O)N1CCC1=CCCCC1 (stereo unspecified),6.2%,i,1.74
Cc1cc(=O)[nH]c(SCC(=O)Nc2nnc(CC(C)C)s2)n1,-8.9%,i,0.22
O=C(/C=C/c1ccccc1)NC(=S)NNC(=O)c1ccco1,-2.6%,i,/
CN(C)C(=O)CSc1nc(-c2ccccc2)nc2c1CCCC2,0.4%,i,/
COc1ccc(CNC(=O)COC(=O)c2cnccn2)cc1,4.2%,i,/
O=C(NCc1cccnc1)Nc1ccc(F)cc1F,3.9%,i,-0.48
COc1ccc(S(=O)(=O)N2CCC(C(=O)c3ccc4c(c3)OCCO4)CC2)cc1,-1.6%,i,1.04
O=C(Nc1ccc(N2CCOCC2)cc1)c1cccnc1,4.4%,i,/
O=C1CC(N2CCN(c3ccccc3Cl)CC2)C(=O)N1c1cccc(F)c1 (stereo unspecified),5.0%,i,1.66
CCC(C)C(NC(=O)OC(C)(C)C)C(=O)NCc1ccco1 (stereo unspecified),-0.4%,i,1.5
O=C(NCc1cccs1)c1ccncc1,1.1%,i,0.0048
O=C(NCc1ccccc1)C(c1ccncc1)N(C(=O)c1csnn1)C1CC1 (stereo unspecified),5.1%,i,/
CCCN(CCC)C(=O)C1c2ccccc2Oc2ccccc21,-1.3%,i,2.47
C=CCNc1nc2c(c(=O)n(C)c(=O)n2C)n1Cc1ccc(F)cc1,2.8%,i,-0.15
O=C1c2cccnc2C(Nc2ccc(S(=O)(=O)N3CCCCC3)cc2)N1Cc1ccccc1 (stereo unspecified),-7.0%,i,-0.4
O=C(O)c1ccc(COc2c(F)c(F)cc(F)c2F)cc1,-0.5%,i,-0.43
CCNC(=O)CC1C(=O)N(c2ccccc2)C(=O)N1Cc1ccc(OC)cc1 (stereo unspecified),-8.2%,i,0.49
CCN1CCN(Cc2ccc3c(c2)Cc2ccccc2-3)CC1,-2.4%,i,-0.44
COc1cccc(-c2cc(C(F)(F)F)n3ncc(C(=O)NCC4CCCO4)c3n2)c1 (stereo unspecified),-0.6%,i,0.16
CCCNC(=O)C(Cc1ccccc1)NS(=O)(=O)c1cccc2nsnc12 (stereo unspecified),-3.7%,i,-0.34
COc1ccc(NS(=O)(=O)c2ccc(-n3nnc4ccccc43)c([N+](=O)[O-])c2)cc1,5.1%,i,/
COc1ccc2[nH]c(C)c(C(=O)CN(C)C)c2c1,3.9%,i,2.02
O=C(CCCC(=O)N(CC(=O)NC1CCCCC1)Cc1ccc2c(c1)OCO2)Nc1ccccn1,1.7%,i,-1.08
Nc1nc(Cn2nnc(-c3ccccc3F)n2)nc(N2CCOCC2)n1,2.4%,i,-2.27
CCOC(=O)c1ccc2c(c1)nc(C)n2CC,-3.7%,i,/
COc1cc(OC)cc(-n2nnnc2SCC(=O)NCc2ccc3c(c2)OCO3)c1,-7.2%,i,1.27
Cc1cn(C(=O)c2ccccc2)c(=S)n1-c1ccc(Br)cc1,3.6%,i,/
Cn1c(-c2ccccc2)cnc1SCC(N)=O,2.1%,i,-0.33
CCOC(=O)C1CCCN(C(=O)C2CCN(S(=O)(=O)CC)CC2)C1 (stereo unspecified),-2.1%,i,0.7
CN(C)c1ccc(C2N(c3ccc(Cl)cc3)C(=O)C3CCCN32)cc1 (stereo unspecified),-3.9%,i,-0.63
CCOC(=O)C1CCCN(C(=O)c2cc3nc(-c4cccc(OC)c4)cc(C(F)(F)F)n3n2)C1 (stereo unspecified),6.4%,i,-0.76
O=C(O)CCSc1ccc2ccccc2n1,0.3%,i,0.06
COc1ccc(C(=O)N2CCCC(c3nc(-c4cc(OC)c(OC)c(OC)c4)no3)C2)cc1 (stereo unspecified),-0.6%,i,-0.09
Cc1ccc(C(C#N)N2CCOCC2)cc1 (stereo unspecified),-6.4%,i,-0.12
CC(C)C(=O)Nc1cccc(NC(=O)c2cccnc2)c1,1.0%,i,0.72
COc1ccc(Cl)cc1NS(=O)(=O)c1ccc(OC)c(OC)c1,-5.7%,i,/
O=C(CCN1C(=O)c2ccccc2C1=O)Nc1ccc(-c2nc3ccccc3o2)cc1,-0.7%,i,1.1
COc1ccc(NC(=O)c2sc(SC)nc2N)cc1,-6.6%,i,-0.51

# Taken from the entries so far (2 entries):
structure,Hsc70,MT1-MMP reporter,WNV NS2B-NS3 inh
O=C(CCN1C(=O)c2ccccc2C1=O)Nc1ccc(-c2nc3ccccc3o2)cc1,-0.7%,i,1.1
COc1ccc(NC(=O)c2sc(SC)nc2N)cc1,-6.6%,i,-0.51

# Continuation.
structure,Hsc70,MT1-MMP reporter,WNV NS2B-NS3 inh
O=C(NCc1cccs1)c1cc2c(s1)CCCC2,-2.9%,i,0.63
CC(CS(=O)(=O)c1ccc2ccccc2c1)N1CCN(C2CCCCC2)CC1 (stereo unspecified),0.2%,i,/
CS(=O)(=O)NCc1nnc(SCc2ccccc2C(F)(F)F)o1,-2.9%,i,2.1
Cc1csc2ncc(C(=O)Nc3ccccc3F)c(=O)n12,1.4%,i,-0.57
COc1ccc(CCN2CC(C(=O)O)CC2=O)cc1OC (stereo unspecified),-0.4%,i,/
COc1ccc(NC(=O)Nc2nnc(-c3ccccc3SCc3ccccc3)s2)cc1,0.3%,i,/
CCS(=O)(=O)Nc1ccc(Cc2ccncc2)cc1,3.8%,i,-1.42
CCc1ccc2oc(-c3cc(N)ccc3O)nc2c1,2.5%,+,1.08
O=S1(=O)CC(O)C(Nc2ccccc2)C1 (stereo unspecified),2.4%,i,/
O=C(COC(=O)c1ccc(NS(=O)(=O)c2ccc3c(c2)OCCO3)cc1)NCC1CCCO1 (stereo unspecified),1.7%,i,-0.11
CCn1nnnc1-c1ccc(OC)c(S(=O)(=O)Nc2ccc(C(=O)OC)cc2)c1,4.6%,i,-1.62
O=C(COC(=O)c1cccs1)NCc1ccccc1,-3.5%,i,-0.25
COc1ccc(Cl)cc1NC(=O)CN(C1CCCCC1)S(C)(=O)=O,-0.9%,i,-1.44
N#Cc1nc(COc2ccccc2F)oc1NCCc1ccccc1,-0.1%,i,-0.26
Cc1nc(CN2CCN(C(=O)NC3(c4ccccc4)CC3)CC2)cs1,1.3%,i,0.44
CC(=O)c1cccc(NC(=O)c2cnn3ccccc23)c1,-5.4%,i,0.8

# A portion of the library, so the mix of outcomes need not match the whole.
